# PMP22 txn: modulators of PMP22 gene transcription in S16 Schwann cells. S16 Pmp22-F2sN Schwann cells (luciferase reporters placed in the Pmp22 gene), FLuc/NLuc coincidence luminescence, 24 h. Potency, µM (titrated, usually from 57.5 µM), for inactives: at the top dose activity change, negative = inhibition, actives largely listed as inhibitors. 43,000 compounds, 2% hits. AID 1508649; active = clear falling dose curves in both reporters; inconclusive = both reporters move, but less clearly or upward; inactive = either reporter flat; the % is the NLuc reporter signal; further: on the % scale 0 is the no-effect control and ±100 the full control effect; some results filed as inactive show a strong effect at the top dose
#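 Transcriptional readout in edited S16(c9) cells: two luciferases reported from the Pmp22 locus, measured in turn after 24 h compound incubation.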
# HTT prom inh: inhibits huntingtin promoter activity | AID 1508623 | 48,000 compounds, 0.93% hits | Potency, µM (titrated, usually from 57.5 µM), for the others: at the top dose activity change, negative = inhibition, hits mostly inhibitors | HEK293 HTT promoter firefly luciferase reporter (activity 0% = vehicle and -100% = no light), 24 h; active means well fitted inhibition curve with a large enough effect; inconclusive means small, poorly fitted or top-dose-only effect; inactive means no such curve, though single readings can be large or run the other way; further: nearly all actives have a fitted effect of over 50% in size
#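 Firefly luciferase signal from promoter-reporter HEK293 cells was scaled between vehicle (0%) and zero RLU (-100%). Compounds were tested at final concentrations of up to 57.5 uM over 24 h at 37 degrees C. PTC124 at 50 uM final served as control inhibitor.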
# * marks the source's active call; other numbers are inactive results; u = inconclusive; x = no result given; & = joins results of further samples; [ ] = remark or other dose. Potency means the concentration at half of the fitted maximal effect.
No.	Molecule	PMP22 txn	HTT prom inh
1	CCN1CCC(N(Cc2ccc3c(c2)OCO3)C(=O)Nc2cccc(C)c2C)CC1	5%	-5%
2	CC(=O)c1ccc(NC(=O)CC2Nc3cc(C)c(C)cc3NC2=O)cc1 (centres undefined)	-20%	u
3	CC(=O)c1ccc(NC(=O)Cn2c(=O)oc3cc(S(=O)(=O)N4CCCCC4)ccc32)cc1	13%	-6%
4	Cc1ccc(-n2ncc(C(=O)NCc3ccco3)c2C2CCN(C(=O)OC(C)(C)C)CC2)c(C)c1	-20%	-35%
5	COc1ccc(-c2cc(C)no2)cc1S(=O)(=O)N1CCOc2ccc(Cl)cc21	-22%	-24%
6	COc1cccc(-c2nc(CS(=O)(=O)CC(=O)Nc3ccc(C)c(Cl)c3)c(C)o2)c1	-2%	u
7	Cc1ccc(S(=O)(=O)N[C@@H](Cc2ccccc2)C(=O)CCl)cc1	x	u
8	COc1ccc(N2CCN(C(=O)Cc3c(C(=O)O)c(C)cn3C)CC2)cc1	u	-16%
9	Cc1ccc(C)c(OCCCC(C)(C)C(=O)O)c1	x	172%&-7%[activator]
10	COc1ccccc1CNC(=O)CCC1N=C2c3ccccc3N=C(SCC(=O)NCCc3ccc(OC)c(OC)c3)N2C1=O (centres undefined)	-21%	u
11	Cc1csc2nc(COC(=O)c3cccc(NC(=O)c4cccc(Cl)c4)c3)cc(=O)n12	-11%	u
12	O=C(Nc1ccccc1C(F)(F)F)N1CCN(c2ccc3nnc(-c4ccc(F)cc4)n3n2)CC1	16µM*	-31%
13	COCCNC(=O)Cn1ncc2c(C)n(Cc3ccc(C)cc3)c(C)c2c1=O	7%	-20%
14	CCOc1ccc(-c2cn3c(n2)sc2cc(C(=O)N4CCCC(C)C4)ccc23)cc1 (centres undefined)	-12%	14%
15	CCCN1CCN(CCNC(=O)Nc2cc(OC)cc(OC)c2)CC1	-2%	-1%
16	CN(C)c1ccc(C(CNC(=O)c2ccccc2C(F)(F)F)N2CCOCC2)cc1 (centres undefined)	5%	7%
17	Cc1ccc(N2C(=O)[C@@H]3CSC(c4ccc(C(F)(F)F)cc4)N3C2=O)cc1 (some centres undefined)	-8%	-4%
18	CCCCc1nn2c(=O)cc(COC(=O)c3ccc(NC(=O)CCc4ccccc4)cc3)nc2s1	6%	-10%
19	CCC(=O)N1CCc2cc(Br)cc(S(=O)(=O)NCc3ccc(Cl)cc3)c21	-26%	-13%
20	CCOC(=O)c1ccc(NC(=O)CC2C(=O)N(c3cccc(C)c3)C(=O)N2CCOC)cc1 (centres undefined)	4%	-15%
21	COc1ccc(CNC(=O)CN(C)c2nn3c(=O)cc(C)nc3s2)cc1	-5%	-11%
22	COc1cc2nc(NCc3ccc(C)cc3)n3nc(-c4ccccc4)nc3c2cc1OC	-7%	5%
23	COc1ccc(CN(Cc2ccco2)c2cnc(S(C)(=O)=O)nc2C(=O)Nc2ccc(F)cc2)cc1	u	-28%
24	COc1ccc(CN2CCCN(CC(=O)Nc3ccc4c(c3)OCCO4)S2(=O)=O)cc1	-11%	-3%
25	COc1ccc(OC)c(CNC(=O)c2ccc(N3Cc4ccccc4Oc4ncccc43)s2)c1	-1%	-27%
26	CCc1cccc(OCC(=O)Nc2ccc(S(=O)(=O)Nc3ncccn3)cc2)c1	73%	-23%
27	CC(Sc1nccn1C)C(=O)Nc1ccccc1C#N (centres undefined)	0%	-12%
28	CCC(Cn1nnc2ccccc2c1=O)NC(=O)Nc1ccc(C)cc1 (centres undefined)	0%	5%
29	COc1cccc(CNC(=O)C(NS(=O)(=O)c2ccc3c(c2)oc(=O)n3C)C(C)C)c1 (centres undefined)	4%	-10%
30	COc1ccc(Cl)cc1S(=O)(=O)NCc1ccc2c(c1)CCN2C(=O)c1cccc(C)c1	11µM*	u
31	Cc1ccc(Nc2c(-c3c[nH]c4ccccc34)nc3ccccn23)cc1	u	51%[activator]
32	CCc1ccccc1NC(=O)C1CCCN(S(=O)(=O)c2cccc3nsnc23)C1 (centres undefined)	u	-9%
33	Cc1c(C(=O)NCCN(C)C)sc2nc3n(c(=O)c12)CCC3	-16%	1%
34	CCOc1ccccc1OCCCn1c(-c2ccc(Cl)cc2)nc2ccccc2c1=O	u	-16%
35	COc1cccc(NC(=O)C2CCCN(c3ncnc4onc(-c5ccc(F)cc5)c34)C2)c1 (centres undefined)	-1%	-9%
36	CCOC(=O)c1ccc(NC(=O)CC2Nc3ccccc3NC2=O)cc1 (centres undefined)	21%	-20%
37	CC(C)c1ccc(S(=O)(=O)N2CCN(CC(=O)Nc3ccccc3C(F)(F)F)CC2)cc1	2%	0%
38	CCn1c(=O)c2cc(C(=O)Nc3cccc(C(F)(F)F)c3)sc2c2ccccc21	0%	-2%
39	Cc1ccccc1C(=O)Nc1ccccc1C(=O)OCc1cc(=O)n2nc(C3CC3)sc2n1	-22%	-13%
40	COc1ccccc1NC(=O)Cn1cnc2c(nc3n2CCCCC3)c1=O	-8%	-3%
41	O=C(C1CCC(Cn2c(=O)c3sccc3n(Cc3ccccc3F)c2=O)CC1)N1CCOCC1 (centres undefined)	3%	u
42	CCn1ccc2cc(S(=O)(=O)N3CCCN(C(=O)NCC(C)C)CC3)ccc21	-29%	-33%
43	COc1ccc(-c2noc(C3CC(=O)N(c4ccc(C)c(F)c4)C3)n2)c(OC)c1 (centres undefined)	-76%	-22%
44	COCCNC(=O)c1ccc(-n2c(-c3ccccc3)cc3c2CCC(C)C3)cc1 (centres undefined)	10µM*	u
45	CCn1ccc2cc(S(=O)(=O)N3CCCN(C(=O)Nc4ccccc4OC)CC3)ccc21	7%	-25%
46	CCCCCOC(=O)CSc1nc2sc3c(c2c(=O)n1Cc1ccccc1)CC(C)(CC)OC3 (centres undefined)	-11%	-13%
47	COc1ccccc1NC(=O)CSc1ccc(-c2ccccn2)nn1	-36%	-11%
48	Cc1nc(Oc2ccccc2C)c2oc3ccccc3c2n1	u	u
49	Cc1ccc(CNC(=O)c2cnc3c(-c4ccccc4)c(C)nn3c2C)o1	7%	-14%
50	COc1ccc(C2c3c(n(C)c4ccccc34)C(=O)N2CC(=O)Nc2ccccc2Cl)cc1 (centres undefined)	0%	u
51	COc1ccccc1NC(=O)CSC1=Nc2ccccc2N=C(c2ccc(F)cc2)C1	u	-5%
52	CCCCOC(=O)c1cccc(NC(=O)c2cc3ccccc3o2)c1	u	10µM*
53	O=c1c(S(=O)(=O)c2cccc(Cl)c2)cn(Cc2ccccc2)c2cc(N3CCCCC3)c(F)cc12	14%	-10%
54	COc1ccc(CNC(=O)C2CCN(S(=O)(=O)N3CCC(C)CC3)CC2)c(OC)c1	-28%	-24%
55	CCOc1ccc(NC(=O)c2ccc3c(=O)n4nc(Nc5ccccc5C)sc4nc3c2)cc1	5%	-1%
56	CCOc1ccc(-n2c(SCC(=O)N3CCCCCC3)nc3c([nH]c4ccccc43)c2=O)cc1	u	-4%
57	CC(C)C(=O)NCC1(N(C)C)CCCCC1	8%	2%
58	Cc1ccccc1NC(=O)Cn1c(=O)n(CCc2ccccc2)c(=O)c2ccccc21	u	-1%
59	CC(=O)C1=C(c2ccc(Cl)c(Cl)c2)N(C(C)=O)n2c(nnc2-c2ccccc2)S1	-23%	-9%
60	O=S(=O)(c1ccccc1)c1nc(-c2ccc(Cl)cc2Cl)oc1N1CCCCCC1	u	-19%

# New compounds follow.
No.	Molecule	PMP22 txn	HTT prom inh
61	Cc1cc(OCC(=O)Nc2cc(-c3nc4ncccc4o3)ccc2C)ccc1Cl	-44%	13%
62	O=S(=O)(Nc1cccc(C(F)(F)F)c1)c1ccc(-c2cnc(C3CC3)o2)cc1	-21%	u
63	COc1ccc(NC(=O)Cn2c(=O)n(Cc3ccc(C(=O)NCc4ccccc4Cl)cc3)c(=O)c3ccccc32)cc1OC	-43%	-2%
64	Cc1ccc(C)c(Cn2c(=O)n(-c3ccc(Cl)cc3)c(=O)c3c4c(sc32)CCC4)c1	-5%	-5%
65	O=C(CCc1nnc2n(Cc3ccccc3Cl)c(=O)c3ccccc3n12)Nc1ccc(F)c(F)c1	u	1%
66	CCOc1ccc(NC(=O)c2ccc3c(=O)n4c(nc3c2)CCCCC4)cc1	-7%	-10%
67	O=C(NC1CC(=O)N(c2ccc(F)cc2)C1)C(c1ccccc1)c1ccccc1 (centres undefined)	18%	-7%
68	O=C(Cn1cc(SCc2ccc(F)cc2)c2ccccc21)N1CCCCCC1	-43%	-12%
69	Cc1cc(Cl)ccc1NC(=O)C1CCN(c2nnc(-n3c(C)ccc3C)s2)CC1	u	-28%
70	CCOc1ccccc1C(=O)N1CCN(CCc2ccccn2)CC1	-1%	4%
71	CCn1cc2c(n1)-c1c(oc(C(=O)Nc3cccc(C(F)(F)F)c3)c1C)CC2	u	6%
72	COc1ccc(-c2cc(C(F)(F)F)n3nc(C(=O)Nc4cc(C(F)(F)F)ccc4Cl)cc3n2)cc1OC	4%	-7%
73	COc1ccc(NC(=O)C2CCN(S(=O)(=O)c3cn(C)cn3)CC2)cc1Cl	9%	-12%
74	COc1cccc(N2CCN(C(=O)C3CCN(S(=O)(=O)c4cn(C)cn4)CC3)CC2)c1	10%	-10%
75	Cc1ccc2c(=O)cc(C(=O)Nc3ccc(S(=O)(=O)Nc4nc(C)cc(C)n4)cc3)oc2c1	3%	5%[11.5 µM]
76	Cc1ccc2c(c1)-c1c(c(C(=O)N3CCN(c4cc(C)ccc4C)CC3)nn1C)CS2	u	-11%
77	COc1ccc(CCNC(=O)c2ccc3c(c2)N(Cc2cccc(Cl)c2)C(=O)CS3)cc1OC	u	u
78	CSc1oc(-c2cccs2)nc1S(=O)(=O)c1ccc(Br)cc1	50%	u
79	Cc1ccc(-n2c(=O)c3c(C)c(C(=O)N(C)C)sc3n(CC(=O)C(C)(C)C)c2=O)cc1C	-5%	-1%
80	O=C(Cn1c(-c2cccs2)cc2cc(Cl)ccc21)N1CCN(c2ccccc2F)CC1	-24%	-29%

# Four of the compounds above, field by field:
74	COc1cccc(N2CCN(C(=O)C3CCN(S(=O)(=O)c4cn(C)cn4)CC3)CC2)c1
  PMP22 txn = 10%; HTT prom inh = -10%
75	Cc1ccc2c(=O)cc(C(=O)Nc3ccc(S(=O)(=O)Nc4nc(C)cc(C)n4)cc3)oc2c1
  PMP22 txn = 3%; HTT prom inh = 5%[11.5 µM]
76	Cc1ccc2c(c1)-c1c(c(C(=O)N3CCN(c4cc(C)ccc4C)CC3)nn1C)CS2
  PMP22 txn = u; HTT prom inh = -11%
77	COc1ccc(CCNC(=O)c2ccc3c(c2)N(Cc2cccc(Cl)c2)C(=O)CS3)cc1OC
  PMP22 txn = u; HTT prom inh = u

# More records
No.	Molecule	PMP22 txn	HTT prom inh
81	COc1ccc(NC(=O)c2cc3c(=O)n(Cc4cccnc4)ccc3nc2C)cc1OC	4%	-7%
82	CCc1ccc(S(=O)(=O)c2cn(Cc3ccc(OC)cc3)c3cc(OC)c(OC)cc3c2=O)cc1	-23%	-17%
83	O=C(CS(=O)(=O)c1nc(-c2ccc(Cl)cc2)cn1-c1ccccc1)Nc1cccc(Cl)c1	u	-27%
84	COc1ccc(C)cc1NC(=O)CCn1nc(C)cc1C	3%	8%
85	CCc1ccc(OCC(=O)Nc2ccc3c(c2)c2ccccc2n3CC)c(Br)c1	u	-13%[11.5 µM]
86	Cc1ccc(S(=O)(=O)C(CNS(=O)(=O)c2ccc(F)c(C(F)(F)F)c2)c2ccco2)cc1 (centres undefined)	14µM*	-11%
87	Cc1c(C(=O)N2CCCC2)oc2c1-c1nn(CC(=O)NCc3cccc(F)c3)cc1CC2	-26%	-20%
88	CCOc1ccccc1NC(=O)Cn1nnc(C(=O)Nc2ccc(C)c(C)c2)c1N	-13%	-2%
89	O=C(Cn1cc(S(=O)(=O)Cc2cccc(Cl)c2)c2ccccc21)NCc1ccccc1Cl	-31%	-28%
90	COc1ccc(-c2[nH]c(-c3ccc(F)cc3)nc2SCC(=O)Nc2ccc(OC)c(OC)c2)cc1	u	-30%
91	CC(C)Oc1ccc(CNC(=O)CN2C(=O)c3cccnc3Oc3ccc(Cl)cc32)cc1	u	-24%
92	COc1cc(Cl)c(C)cc1NC(=O)CCc1nc2cccnc2n1Cc1cccs1	u	u
93	CCN(C(=O)C1CCCN(c2ncnc3c2nc2n3CCCCC2)C1)c1cccc(C)c1 (centres undefined)	u	u
94	Cc1ccc(CCNC(=O)c2cc3c(=O)n(C)c4ccccc4c3n2C)cc1	u	-6%
95	CCC(C)NC(=O)CCCn1c(=O)c2cccn2c2ccccc21 (centres undefined)	-47%	7%
96	O=C(NCc1ccc(F)cc1)C(=O)NCC(c1ccco1)S(=O)(=O)c1cccs1 (centres undefined)	-34%	-22%
97	CC(=O)N1CCCc2cc(S(=O)(=O)N(C)CC(=O)Nc3ccc(C(C)C)cc3)ccc21	u	u
98	CCCCCC(N)=O	x	16%
99	Cc1ccc(N2CC(NC(=O)Cc3cccs3)CC2=O)cc1C (centres undefined)	37%	-18%
100	COc1cc(C(=O)Nc2ccc3nc(SCc4ccccc4)sc3c2)cc(OC)c1OC	-10%	u

# Bioassay records: PubChem BioAssay, National Center for Advancing Translational Sciences (NCATS)
